Vaccinia mCherry – qHTS for Stage-Specific Inhibitors of Vaccinia Orthopoxvirus: mCherry Reporter Primary qHTS; Vaccinia virus mCherry reporter infection, fluorescence; about a quarter of the inactives have no number; Potency, µM (top dose mostly 36.5 µM), without a hit: at the top dose activity change, negative = inhibition, actives largely listed as inhibitors; 0.63% of 310,000 active; AID 720579, 2013; active = well fitted inhibition curve with a large enough effect; inconclusive = small, poorly fitted or top-dose-only effect; inactive = no such curve, though single readings can be large or run the other way; tested in A549 cells; further: nearly all actives have a fitted effect of over 35% in size; inactives centre near -10
Vaccinia Venus – qHTS for Stage-Specific Inhibitors of Vaccinia Orthopoxvirus: Venus Reporter Primary qHTS; Vaccinia virus Venus reporter expression, fluorescence; 0.46% of 330,000 active; Potency, µM (doses to about 36.5 µM), inactives show at the highest dose activity change, negative = inhibition, usual class: inhibitors; active means well fitted inhibition curve with a large enough effect; inconclusive means small, poorly fitted or top-dose-only effect; inactive means no such curve, though single readings can be large or run the other way; tested in A549 cells; further: nearly all actives have a fitted effect of over 30% in size; inactives centre near -10
The depositor's hits bear a star; i = inactive; ? = inconclusive; nt = not tested or not shown; & = joins results of further samples. On the % scale 0 is the no-effect control and ±100 the full control effect; potency means the concentration at half of the fitted maximal effect.

Molecule	Vaccinia mCherry	Vaccinia Venus
Cc1cc(OCC(=O)N2CCN(CCc3ccncc3)CC2)cc(C)c1Cl	-15%	-6%
COc1cc(C)c(C#N)c(OC)n1	-15%	-7%
O=C(C[C@H]1C[C@@H]2c3cc(NS(=O)(=O)c4ccccc4)ccc3O[C@@H]2[C@H](CO)O1)N1CCOCC1	7%	-7%
COc1ccccc1CNC(=S)NCc1ccc(F)cc1	i	-6%
CCN(Cc1ccccc1)C(=O)CSc1nc(C)cc(C)c1C#N	i	-8%
CCOC(=O)N1CCN(C(=O)COc2ccc(Cl)cc2C)CC1	-9%	1%
Cc1ccc(N2CC(C(=O)NCc3nnnn3-c3ccc(C)c(C)c3)CC2=O)cc1C (stereo not given)	-14%	-15%
Cc1ccc(Cc2c(-c3ccccc3)nc3c(C)cc(Br)cn23)cc1	-11%	-7%

Single records, as listed above. Order of screens: Vaccinia mCherry	Vaccinia Venus
Record of O=C(C[C@H]1C[C@@H]2c3cc(NS(=O)(=O)c4ccccc4)ccc3O[C@@H]2[C@H](CO)O1)N1CCOCC1 : 7%	-7%
Record of CCN(Cc1ccccc1)C(=O)CSc1nc(C)cc(C)c1C#N : i	-8%

Other compounds:
Molecule	Vaccinia mCherry	Vaccinia Venus
O=C(Nc1ccc2oc(-c3ccccc3)nc2c1)C1CCCO1 (stereo not given)	2%	-4%
CCOc1ccc(CCNC(=O)COC(=O)COc2ccc(C(=O)CC)cc2)cc1OCC	i	-11%
Cc1ccc(C)c(NC(=O)C2=CCN(S(=O)(=O)c3ccc(F)cc3)CC2)c1	i	-12%
CC(=O)Nc1ccc(-c2noc(-c3csc([C@@H]4C[C@H](O)[C@@H](CO)O4)n3)n2)cc1	4%	24%
CC1(C(=O)NC2CCCCC2)Cc2ccccc2C(=O)N1Cc1ccc(Cl)cc1 (stereo not given)	-5%	-9%
CCCn1c(N)c(N(CCOC)C(=O)c2ccc(F)cc2F)c(=O)[nH]c1=O	i	-6%
CCOC(=O)c1ccc(-n2c(CCC(=O)O)ccc2-c2ccccc2)cc1O	-4%	-6%
Cc1ccc(NC(=O)c2ccc(S(=O)(=O)N3CCCCCC3)cc2)nc1	-27%	?

Remaining list, next part.
Molecule	Vaccinia mCherry	Vaccinia Venus
COc1cc(C(=O)OCC(=O)N2CCCCC2C)ccc1OCc1c(C)noc1C (stereo not given)	i	-23%
O=C(Nc1ccccn1)c1csc2c1CCCC2	i	-14%
CC(C)CC(C(=O)NC(C)(C)C)N(Cc1cccs1)C(=O)c1snc(C(N)=O)c1N (stereo not given)	i	-14%
CC(NC(=O)/C(=C/c1cccc([N+](=O)[O-])c1)NC(=O)c1ccco1)C(=O)O (stereo not given)	-9%	-6%
COc1ccc(O)c(/C=N/NC(=O)c2c(C)nnn2-c2nonc2N)c1	?	-28%
Cc1ccc(S(=O)(=O)N(C)C)cc1NC(=O)COC(=O)C1CCCC1	-7%	0%
CCOC(=O)c1cc(-c2ccccc2)n(CCCC(=O)Nc2cccc(Cl)c2C)c1C	-4%	-15%
CC(=O)c1c(C)[nH]c(C(=O)NCCN2CCC(C)CC2)c1C	i	-18%

More structures.
Molecule	Vaccinia mCherry	Vaccinia Venus
O=C(NCc1ccccn1)c1ccc(OC2CCN(Cc3ccc(CO)o3)CC2)cc1	-11%	-8%
CCc1ccc(OCc2ccc(C(=O)NCc3ccccn3)o2)cc1	nt	-2%
CC(=O)c1ccc(S(=O)(=O)N2CCC(c3nnc(SCCN4CCCC4)n3C)CC2)cc1	-5%	-11%
CC[N+]12CCC(CC1)C(=C(c1ccccc1)c1ccccc1)C2	-11%	-7%
O=C(CC(C(=O)N1CCc2ccccc21)n1ccnc1)N1CCc2ccccc2C1 (stereo not given)	-10%	1%
NC(=O)c1cccc(Nc2nc(C(N)COCc3ccccc3)cs2)n1 (stereo not given)	-13%	-5%
CC1CN(c2ccc([N+](=O)[O-])cc2Cl)CCN1 (stereo not given)	i	-2%
Cc1ccc(C2=NN(CC(=O)NCCN(CC(C)C)CC(C)C)C(=O)CC2)cc1	-12%&-17%	-26%&-15%

The list goes on.
Molecule	Vaccinia mCherry	Vaccinia Venus
CN(C)/C=N/c1nc(-c2ccc3c(c2)OCO3)cs1	i	-2%
O=C(NCCCC1CCCC1)C1CCC(=O)N(Cc2ccccc2F)C1 (stereo not given)	-8%	-24%
CC1CCCCC1NC(=O)Cn1ncc2ccccc21 (stereo not given)	2%	-8%
Cc1ccnc2nc(C(=O)Nc3nc4ccccc4s3)nn12	0%	-14%
COc1ccccc1NC(=S)NCCc1ccc(S(N)(=O)=O)cc1	-7%	0%
O=C(Nc1cc(C(F)(F)F)ccc1Cl)C(Sc1n[nH]c(=O)[nH]c1=O)c1ccccc1 (stereo not given)	i	-12%
COc1ccccc1C(=O)Nc1ccccc1N1CCN(C(=O)c2ccc(Cl)cc2)CC1	i	-16%
Cc1ccccc1NC(=O)Cc1nc(COC(=O)c2ccc([N+](=O)[O-])cc2)cs1	-10%	-6%

Later entries:
Molecule	Vaccinia mCherry	Vaccinia Venus
CCCCCCn1c(N2CCCC2)nc2c1c(=O)[nH]c(=O)n2C	-12%	-15%
Cc1cnc(C(=O)OCC(=O)c2cc(C)n(CCc3ccc(F)cc3)c2C)cn1	i	-12%
O=C(N/C(=C/c1ccc(Br)cc1)c1nc2ccccc2[nH]1)c1ccco1	?	-20%
CCN(CC)S(=O)(=O)c1ccc(OC)c(NC(=O)OCc2ccccc2)c1	-14%	-5%
O=C(Cn1sc2ccccc2c1=O)Nc1ccc(Cl)cc1	i	-15%
CCc1nnc(NCC(=O)N2CCc3ccccc32)s1	-9%	-13%
Nc1nc(-c2cccc(NS(=O)(=O)c3ccccc3)c2)cs1	?	?
CCOC(=O)c1c(S(=O)(=O)N2CCCC(C(=O)Nc3ccccn3)C2)c(C)n(C)c1C (stereo not given)	-3%	11%

(listing goes on)
Molecule	Vaccinia mCherry	Vaccinia Venus
O=c1c2ccccc2nc(/C=C\c2ccccc2[N+](=O)[O-])n1-c1ccccc1O	?	?
CN(C)CCN1CCN(C2CN(Cc3cn(Cc4ccccc4C(F)(F)F)nn3)S(=O)(=O)C2)CC1 (stereo not given)	2%	0%
CN(C)CCOC1(Cc2ccc(F)cc2)CCC(C(C)(C)C)CC1 (stereo not given)	-13%	?
CC1CCN(C(=O)c2cccc(NC(=O)c3cccs3)c2)CC1	1%	-9%
CC1CCc2c(nc3ncnn3c2N2CCN(c3ccccc3F)CC2)C1 (stereo not given)	-14%	-10%
COc1cc(C(Nc2ccccn2)c2ccc3ccc(C)nc3c2O)cc(OC)c1O (stereo not given)	13µM*	?
CCOc1ccc(S(=O)(=O)NCCC(=O)N2CCC(Cc3ccccc3)CC2)cc1	-6%	-20%
COC(=O)C1=C(c2ccc(F)cc2OCc2ccccc2)C[C@@H]2CC[C@H]1N2C(=O)NCc1cc(C)oc1C(F)(F)F	-6%	-29%

(listing goes on)
Molecule	Vaccinia mCherry	Vaccinia Venus
Cc1ccccc1OCC(=O)OCC(=O)NC1CCCCCC1	-6%	-2%
CCN(C[C@H]1N[C@@](CC)(C(=O)OC)[C@H]2C(=O)N(Cc3ccccc3)C(=O)[C@@H]12)S(=O)(=O)c1ccc(C)cc1	-11%	?
CSc1cccc(NC(=O)CCNC(=O)c2ccco2)c1	-21%	-15%
Fc1ccc(Cn2nnnc2CN2CCN(C3CCCCC3)CC2)cc1	i	-1%
CCc1ccc(C=O)cc1	-9%	-5%
COc1ccc(CNC(=O)CCCN2C(=O)CSc3c2c(C)nn3-c2ccccc2)cc1	0%	1%
CCN(C(=O)COC(=O)CSc1ccccc1)c1c(N)n(Cc2ccccc2)c(=O)[nH]c1=O	-5%	-19%
COc1ccc(C(=O)CC(=O)C(=O)Nc2cccc(C(C)=O)c2)cc1	i	-4%

Brought forward from above: five compounds, followed by the next part.
Molecule	Vaccinia mCherry	Vaccinia Venus
Fc1ccc(Cn2nnnc2CN2CCN(C3CCCCC3)CC2)cc1	i	-1%
CCc1ccc(C=O)cc1	-9%	-5%
COc1ccc(CNC(=O)CCCN2C(=O)CSc3c2c(C)nn3-c2ccccc2)cc1	0%	1%
CCN(C(=O)COC(=O)CSc1ccccc1)c1c(N)n(Cc2ccccc2)c(=O)[nH]c1=O	-5%	-19%
COc1ccc(C(=O)CC(=O)C(=O)Nc2cccc(C(C)=O)c2)cc1	i	-4%
O=C(Nc1cccc2c1C(=O)NC2=O)c1cccnc1Cl	-1%	-1%
CNc1ccc2ncc(-c3ccccc3C(C)=O)n2n1	7%	2%
COc1cccc(OC)c1NC(=O)Cn1nc(-c2ccc3c(c2)OCCO3)ccc1=O	-8%	10%
CC(=O)Nc1ccc(NC(C)=O)s1	-10%	-12%
O=C(c1ccco1)N1CCN(S(=O)(=O)/C=C/c2ccccc2)CC1	i	10%
CC1CCCN(C2=C(NS(=O)(=O)c3ccc(Br)cc3)C(=O)c3ccccc3C2=O)C1 (stereo not given)	-32%	-13%
Cc1cc(C)n(-c2ccc(C(=O)Nc3ccc4c(c3)OCO4)cc2)n1	nt	-25%
COc1ccc(C)cc1NC(=O)C(NCC1CCCO1)c1ccccc1 (stereo not given)	-9%	-23%

Remaining list, next part
Molecule	Vaccinia mCherry	Vaccinia Venus
C[C@@]12C(=O)N(Cc3ccccc3)CC(=O)N1[C@H]1c3cc(Cl)ccc3OC[C@@H]1[C@@H]2c1ccccc1	-3%	-7%
c1ccc(-c2csc(=Nc3cccnc3)n2CC2CCCO2)cc1 (stereo not given)	-12%	-9%
CC(=O)Nc1cc(=O)c2cccnc2[nH]1	i	-7%
Cc1ccc(OCC(=O)NNC(=O)c2cc3ccccc3o2)cc1	-21%	-10%
NC(CSC1(c2ccccc2)c2ccccc2-c2ccccc21)C(=O)O (stereo not given)	i	-14%
CCc1ccc2c(c1)C(c1ccncc1)=NNC(c1ccccc1)=N2	i	-25%
O=C(NN=Cc1cccc([N+](=O)[O-])c1)c1cccc2ccccc12	-6%	-17%
Cc1ccc(NC(=O)COC(=O)[C@@H]2CC(O)CN2S(=O)(=O)c2ccc3c(c2)OCCO3)cc1 (stereo not given in full)	-17%	-13%

The listing continues.
Molecule	Vaccinia mCherry	Vaccinia Venus
COc1ccc(Cl)cc1Cn1c(C)c(C(=O)NCc2cccc([N+](=O)[O-])c2)sc1=O	i	-8%
CCCCOCc1cc(CN2CCN(c3cccc(Cl)c3)CC2)c(O)c2ncccc12	?	-27%
O=C(Cn1cnc2c(nnn2-c2cccc(F)c2)c1=O)Nc1ccc2c(c1)OCCO2	i	-12%
CC(=O)c1ccc(-c2cccc(-c3cc(=O)oc4ccc(C(C)(C)C)cc34)c2)cc1	-13%	?
COc1ccc(S(=O)(=O)N(C)C[C@@H]2OCc3cnnn3CCCC(=O)N([C@@H](C)CO)C[C@@H]2C)cc1	i	-7%
CCn1c2ccccc2c2cc(NC(=O)CSc3nnc(-c4ccccc4)o3)ccc21	?	-10%
O=C(NCc1ccc2c(c1)OCO2)c1ccc(CSCc2ccc(Cl)cc2)o1	-19%	-12%
O=C1OCCOC2CCCc3oc(-c4ccccc4)c1c32 (stereo not given)	-5%	-10%

Quoted from the listing:
Under Vaccinia Venus, CCn1c2ccccc2c2cc(NC(=O)CSc3nnc(-c4ccccc4)o3)ccc21 reads -10%
Under Vaccinia Venus, COc1ccc(S(=O)(=O)N(C)C[C@@H]2OCc3cnnn3CCCC(=O)N([C@@H](C)CO)C[C@@H]2C)cc1 reads -7%
Under Vaccinia Venus, COc1ccc(Cl)cc1Cn1c(C)c(C(=O)NCc2cccc([N+](=O)[O-])c2)sc1=O reads -8%
Under Vaccinia mCherry, O=C(NCc1ccc2c(c1)OCO2)c1ccc(CSCc2ccc(Cl)cc2)o1 reads -19%
Under Vaccinia Venus, O=C(Cn1cnc2c(nnn2-c2cccc(F)c2)c1=O)Nc1ccc2c(c1)OCCO2 reads -12%
Under Vaccinia mCherry, CC(=O)c1ccc(-c2cccc(-c3cc(=O)oc4ccc(C(C)(C)C)cc34)c2)cc1 reads -13%
Under Vaccinia Venus, O=C1OCCOC2CCCc3oc(-c4ccccc4)c1c32 (stereo not given) reads -10%

Remaining list, next part:
Molecule	Vaccinia mCherry	Vaccinia Venus
Cc1noc(C)c1CSCC(=O)Nc1cc(C(F)(F)F)ccc1N1CCOCC1	i	-12%
Cc1ccccc1NC(=O)Cn1c(=O)n(CCC(=O)N2CCc3ccccc3C2)c(=O)c2ccccc21	-2%	-3%
O=C(Oc1cccc2cccnc12)c1cccs1	nt	-20%
NC(=O)c1ccc(C(=O)N/N=C(/Cc2ccccc2)c2ccccc2)cc1	-12%	-12%
O=C1C2CCCN2C(c2cccnc2)N1c1cccc(Cl)c1 (stereo not given)	-15%	-12%
COC1=NC2=NCCN2C(OC)=N1	i	-1%
O=C(CSc1nnc(COc2ccc(Cl)cc2)o1)N1CCN(c2ccccc2)CC1	3%	1%
C/C(=N\Nc1ncc(Cl)cc1Cl)c1ccccn1	?	16%

(cont.)
Molecule	Vaccinia mCherry	Vaccinia Venus
O=C(CSc1ncn(-c2ccccc2)n1)N1CCc2ccccc21	-23%	-9%
CN(C)CC(C(=O)Cc1ccccc1)c1ccccc1 (stereo not given)	-23%	?
O=C(NCCO)/C(=C\c1cccc([N+](=O)[O-])c1)NC(=O)c1cccs1	-3%	-2%
CC1(C)COC(Cn2c3ccccc3c3ccccc32)O1 (stereo not given)	-12%	-9%
O=C(CN(c1ccc(Cl)c(C(F)(F)F)c1)S(=O)(=O)c1ccccc1)Nc1cccnc1	-23%	-9%
Cc1ccc(NC(=O)c2sccc2-n2cccc2)c(Cl)c1	i	-11%
COc1ccc2c3c(cccc13)N(C)N=C2C	-3%	-7%

Assay outcomes deposited in PubChem by National Center for Advancing Translational Sciences (NCATS).
